Bioassay records from PubChem.
ALR H2O2 inh: blocks human ALR sulfhydryl oxidase activity; P55789; purified ALR, DTT oxidation, H2O2 HRP-luminol luminescence; inhibition, % (test concentration not listed); 3.8% of 290,000 active; AID 485317;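 active means mean and each replicate at 75% or more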;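 further: stock transfer was 7.5 nL into about 7.5 µL; 0% = neutral wells and 100% = wells with inactivated enzyme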
HNF4A DNA FP: change in binding of human HNF4 alpha to DNA | HNF4a-FITC DNA binding, fluorescence polarization, 1 h | activity change, % at 10 µM | 0.3% of 360,000 active | AID 1224865; in the data active means activity change above about 30%, passing the limit was not always enough;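 further: controls were the assay level and a saturating level of protein; the project sought stronger binding though the title names inhibitors; some compounds called inactive have numbers as strong as hits; positive values seem to mean higher polarization but the record does not say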
LANA-H2A inh: blocks KSHV LANA binding to histone H2A/H2B. cell-free LANA-H2A/H2B peptide, fluorescence polarization. 0.6% of 320,000 active. AID 2629. inhibition, % (test concentration not listed); in the data active means inhibition mostly above about 10%, no sharp cut-off; inactive means mostly below about 6.7%;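 further: stock transfer was 7.5 nL into about 10 µL; 0% = median of vehicle wells and 100% = median of positive control wells; one replicate is shown; the record names a cut of 25% in any replicate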
Target sequence (Q9QR71 whole entry, looked up): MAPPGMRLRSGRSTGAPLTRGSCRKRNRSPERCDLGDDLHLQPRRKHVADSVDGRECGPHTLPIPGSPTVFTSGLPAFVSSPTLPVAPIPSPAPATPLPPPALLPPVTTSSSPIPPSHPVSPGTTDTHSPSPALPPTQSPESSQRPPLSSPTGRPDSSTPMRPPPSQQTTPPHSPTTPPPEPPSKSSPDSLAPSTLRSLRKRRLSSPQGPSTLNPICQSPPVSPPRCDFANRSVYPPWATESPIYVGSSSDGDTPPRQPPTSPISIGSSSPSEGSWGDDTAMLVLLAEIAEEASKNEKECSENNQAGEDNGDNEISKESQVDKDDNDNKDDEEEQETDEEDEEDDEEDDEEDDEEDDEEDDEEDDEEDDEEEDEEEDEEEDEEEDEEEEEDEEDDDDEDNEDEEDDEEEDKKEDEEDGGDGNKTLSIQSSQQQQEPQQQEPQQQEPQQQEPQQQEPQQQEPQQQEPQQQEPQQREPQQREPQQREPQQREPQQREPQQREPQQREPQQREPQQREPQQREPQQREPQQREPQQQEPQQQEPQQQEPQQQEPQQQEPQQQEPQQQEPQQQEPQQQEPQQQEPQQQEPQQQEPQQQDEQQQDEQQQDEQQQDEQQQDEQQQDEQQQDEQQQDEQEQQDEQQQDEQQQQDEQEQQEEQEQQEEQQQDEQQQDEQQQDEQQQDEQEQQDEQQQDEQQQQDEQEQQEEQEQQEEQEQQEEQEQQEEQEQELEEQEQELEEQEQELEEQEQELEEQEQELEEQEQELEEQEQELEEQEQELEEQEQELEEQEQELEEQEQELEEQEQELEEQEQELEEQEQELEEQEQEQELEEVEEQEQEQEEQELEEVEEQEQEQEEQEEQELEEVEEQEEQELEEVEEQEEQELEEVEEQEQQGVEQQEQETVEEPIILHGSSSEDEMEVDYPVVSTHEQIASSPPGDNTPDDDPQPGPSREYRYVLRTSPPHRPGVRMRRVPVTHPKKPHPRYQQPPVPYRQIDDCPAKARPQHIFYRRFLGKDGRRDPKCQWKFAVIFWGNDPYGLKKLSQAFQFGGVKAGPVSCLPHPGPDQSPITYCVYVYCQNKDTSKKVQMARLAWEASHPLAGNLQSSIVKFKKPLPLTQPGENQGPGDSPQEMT
E coli growth: E. coli growth inhibition; Escherichia coli growth, OD600, 23 h; active compounds read low; OD600 absorbance (concentration not given with the values); 0.21% of 330,000 active;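 active means OD600 absorbance below the run mean of sample wells minus 3.6 SD, in any replicate, cut at about 0.56 in these data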;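 further: stock transfer was 300 nL into about 60 µL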
UCH37 DUB inh: inhibitors of human deubiquitinating enzyme UCH37; Q9Y5K5; purified proteasome/UCH37, Ub-AMC cleavage fluorescence; inhibition, % (concentration not given with the values); 0.33% of 330,000 active;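 active means mean of two replicates above 20%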;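 further: 0% = compound-free wells with enzyme and 100% = wells lacking proteasome; stock transfer was 100 nL into about 20 µL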
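Reagent: Ub-AMC substrate; assay system: Proteasome-associated human UCH37 deubiquitinase; controls: no-proteasome and no-compound wells; read-out: % inhibition of Ub-AMC cleavage fluorescence; timing: 30 min preincubation with enzyme, 25 min cleavage at room temperature; signal: AMC fluorescence from Ub-AMC cleavage, excitation 355 nm, emission 460 nm; buffer or medium: Tris-HCl pH 7.4 plus ovalbumin, ATP-MgCl2, DTT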
FGF22 binding: shifts melting point of recombinant human FGF22; recombinant FGF22 thermal shift, SYPRO orange fluorescence; percent of sucrose octasulfate shift, DMSO zero; calls only at 9.99 µM; 1.5% of 340,000 active;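 active means melting point raised past a set limit in the mean and every replicate; three in four hits are not shown here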
B2AR ag: agonists of human beta-2 adrenergic receptor inducing internalization; P07550; Am2.2-beta2AR cells, FAP receptor internalization, flow cytometry; reference of the scale not given here; response, % (no concentration beside the values); 0.43% of 340,000 active; AID 504454;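 active means response above a set limit, near 3 SD of response in nonfluorescent compounds, cut at about 42% in these data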;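 further: stock transfer was 100 nL into about 11 µL; a reference agonist was the positive control; negative values mostly stem from fluorescent compounds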
The depositor's hits bear a star. An excerpt; count on the stated rates, not on these rows.

What do the screens show for `CCCCCC(O)(c1ccc(OC)cc1)C(CN1CCOCC1)c1ccccc1` (centres undefined)?
ALR H2O2 inh: 1; HNF4A DNA FP: 3.2; LANA-H2A inh: -3.9; FGF22 binding: inactive; B2AR ag: 2

What do the screens show for `COc1cc(OC)cc(-c2c(C#Cc3ccsc3)c3cc(-c4ccccc4OC)ccc3n2C)c1`?
ALR H2O2 inh: -3; HNF4A DNA FP: 3.2; LANA-H2A inh: -7.5; E coli growth: 0.73; UCH37 DUB inh: -38; FGF22 binding: inactive; B2AR ag: 4

How did Cc1noc(C)c1CSc1ccc(Br)cc1 do in these assays?
ALR H2O2 inh: -21; HNF4A DNA FP: -0.6; LANA-H2A inh: 2.3; E coli growth: 0.66; UCH37 DUB inh: 3.4; FGF22 binding: inactive; B2AR ag: 11

How did Cc1ccc(C(=O)NC2CC3CCC(C2)N3C)cc1 (centres undefined) do in these assays?
ALR H2O2 inh: -4; HNF4A DNA FP: -0.5; LANA-H2A inh: -1.1; FGF22 binding: inactive; B2AR ag: -1

What do the screens show for `CC1(c2cccc(Br)c2)NC(=O)NC1=O` (centres undefined)?
ALR H2O2 inh: -3; HNF4A DNA FP: 2.1; LANA-H2A inh: 1.9; E coli growth: 0.66; UCH37 DUB inh: 1.6; FGF22 binding: inactive; B2AR ag: 16

Results for CCOc1ccc(C(C)=O)cc1Cn1c(=O)oc2ccccc21 ?
ALR H2O2 inh: -5; HNF4A DNA FP: 4.5; LANA-H2A inh: 2.0; E coli growth: 0.68; UCH37 DUB inh: 2.2; FGF22 binding: inactive; B2AR ag: -7

How did N#CC(c1cccc(Cl)c1)c1ncc(C(F)(F)F)cc1Cl (centres undefined) do in these assays?
ALR H2O2 inh: 27; HNF4A DNA FP: 0.7; LANA-H2A inh: -2.5; E coli growth: 0.62; UCH37 DUB inh: 2.4; B2AR ag: 1

Results for Cc1cc2oc(=O)cc(CSc3nc(N)cc(N)n3)c2cc1C(C)C ?
ALR H2O2 inh: -1; HNF4A DNA FP: 0.3; LANA-H2A inh: 0.0; E coli growth: 0.69; UCH37 DUB inh: 0.7; B2AR ag: -1

Results for Cc1cc[n+](CC(=O)c2cc3ccccc3oc2=O)cc1 ?
ALR H2O2 inh: -2; HNF4A DNA FP: -0.9; LANA-H2A inh: 5.6; E coli growth: 0.67; UCH37 DUB inh: -8.4; FGF22 binding: inactive; B2AR ag: 13

How did COc1cccc(NC(=O)CSc2ncnc3c2oc2ccccc23)c1 do in these assays?
ALR H2O2 inh: 68; HNF4A DNA FP: 3.1; LANA-H2A inh: 1.2; E coli growth: 0.71; UCH37 DUB inh: 2.5; FGF22 binding: inactive; B2AR ag: -13

How did O=[N+]([O-])c1cccc(S(=O)(=O)NCc2ccccn2)c1 do in these assays?
ALR H2O2 inh: -12; HNF4A DNA FP: 2.7; LANA-H2A inh: -1.2; E coli growth: 0.69; UCH37 DUB inh: 1.1; FGF22 binding: inactive; B2AR ag: -2

How did O=C(Cc1ccccc1)N/N=C/c1ccc(-c2ccc([N+](=O)[O-])cc2)o1 do in these assays?
ALR H2O2 inh: -4; HNF4A DNA FP: 13; LANA-H2A inh: -5.0; B2AR ag: -4

What do the screens show for `CCOC(=O)N1CCN(C(=O)/C=C/c2ccc(OC)cc2)CC1`?
ALR H2O2 inh: -4; HNF4A DNA FP: -5.4; LANA-H2A inh: -1.2; FGF22 binding: inactive; B2AR ag: 4

How did CCN(CC)C(=O)CSc1nnc(-c2ccccn2)n1-c1ccccc1OC do in these assays?
ALR H2O2 inh: 2; HNF4A DNA FP: -2.8; LANA-H2A inh: -8.8; E coli growth: 0.7; UCH37 DUB inh: 3.9; FGF22 binding: inactive; B2AR ag: 0

What do the screens show for `CC(CCc1ccco1)NC(=O)Cn1ncc2c1-c1ccccc1OC2` (centres undefined)?
ALR H2O2 inh: -2; HNF4A DNA FP: -0.7; LANA-H2A inh: 2.0; E coli growth: 0.75; UCH37 DUB inh: 4.1; FGF22 binding: inactive; B2AR ag: 10

Reprinted from the part before: 2 compounds; new compounds follow.
How did CCN(CC)C(=O)CSc1nnc(-c2ccccn2)n1-c1ccccc1OC do in these assays?
ALR H2O2 inh: 2; HNF4A DNA FP: -2.8; LANA-H2A inh: -8.8; E coli growth: 0.7; UCH37 DUB inh: 3.9; FGF22 binding: inactive; B2AR ag: 0

What do the screens show for `CC(CCc1ccco1)NC(=O)Cn1ncc2c1-c1ccccc1OC2` (centres undefined)?
ALR H2O2 inh: -2; HNF4A DNA FP: -0.7; LANA-H2A inh: 2.0; E coli growth: 0.75; UCH37 DUB inh: 4.1; FGF22 binding: inactive; B2AR ag: 10

How did COc1ccccc1-n1cc(CN2CCCC(CO)(Cc3cccc(Cl)c3)C2)cn1 (centres undefined) do in these assays?
ALR H2O2 inh: -5; HNF4A DNA FP: 0.6; LANA-H2A inh: -0.6; E coli growth: 0.69; UCH37 DUB inh: 6.9; FGF22 binding: inactive; B2AR ag: 5

Results for O=C(CNC1CCCCC1)Nc1cc(S(=O)(=O)N2CCOCC2)ccc1Cl ?
ALR H2O2 inh: -44; HNF4A DNA FP: 1.6; LANA-H2A inh: -0.7; E coli growth: 0.7; UCH37 DUB inh: -1.0; FGF22 binding: inactive; B2AR ag: -7

Results for c1csc(Cn2c(-c3cccs3)nc3ccccc32)c1 ?
ALR H2O2 inh: -12; HNF4A DNA FP: -2.2; LANA-H2A inh: 2.8; E coli growth: 0.68; UCH37 DUB inh: -26; B2AR ag: -4

How did CCOC(=O)/C=C/c1ccc2oc3ccccc3c(=O)c2c1 do in these assays?
ALR H2O2 inh: 11; HNF4A DNA FP: -0.4; LANA-H2A inh: -4.5; UCH37 DUB inh: -9.7; FGF22 binding: inactive; B2AR ag: -4

What do the screens show for `O=[N+]([O-])c1ccccc1OCCCOc1cccc2cccnc12`?
ALR H2O2 inh: -4; HNF4A DNA FP: 1.3; LANA-H2A inh: 2.9; E coli growth: 0.67; UCH37 DUB inh: 4.6; FGF22 binding: inactive; B2AR ag: -14

What do the screens show for `Cc1ccc2cc(CN(Cc3ccco3)C(=O)NC3CCCCC3)c(=O)[nH]c2c1C`?
ALR H2O2 inh: 1; HNF4A DNA FP: -1.4; LANA-H2A inh: -5.8; E coli growth: 0.69; UCH37 DUB inh: -6.4; FGF22 binding: inactive; B2AR ag: 2

What do the screens show for `O=S(=O)(NCCN1CCOCC1)c1ccc(F)c(Cl)c1`?
ALR H2O2 inh: -13; HNF4A DNA FP: -1.1; LANA-H2A inh: -1.0; E coli growth: 0.68; UCH37 DUB inh: 5.1; FGF22 binding: inactive; B2AR ag: -8

Results for O=C(CSc1nnc(-c2c[nH]c3ccccc23)o1)c1ccc(-c2ccccc2)cc1 ?
ALR H2O2 inh: 2; HNF4A DNA FP: 4.0; LANA-H2A inh: 2.6; E coli growth: 0.65; UCH37 DUB inh: 3.0; B2AR ag: 16

What do the screens show for `COC(=O)CCc1nc2ccccc2nc1OC`?
ALR H2O2 inh: -1; HNF4A DNA FP: 0.3; LANA-H2A inh: 3.2; E coli growth: 0.7; UCH37 DUB inh: -24; FGF22 binding: inactive; B2AR ag: -6

What do the screens show for `CC(=O)Nc1ccc(S(=O)(=O)Nc2cccc3cccnc23)cc1`?
ALR H2O2 inh: 1; HNF4A DNA FP: -1.8; LANA-H2A inh: 2.2; E coli growth: 0.69; UCH37 DUB inh: 2.8; FGF22 binding: inactive; B2AR ag: -1

Results for Cc1cc(NC(=O)c2ccc(C)c(C)c2)no1 ?
ALR H2O2 inh: 0; HNF4A DNA FP: -1.3; LANA-H2A inh: 5.6; E coli growth: 0.68; UCH37 DUB inh: -0.9; FGF22 binding: inactive; B2AR ag: -6

How did C/C(=N/OC(=O)c1cccc(C(F)(F)F)c1)c1cnccn1 do in these assays?
ALR H2O2 inh: -1; HNF4A DNA FP: 1.3; LANA-H2A inh: 3.9; FGF22 binding: inactive; B2AR ag: -4

Results for O=C(CNC(=O)c1cccs1)N/N=C/c1c[nH]c2ccccc12 ?
ALR H2O2 inh: 5; HNF4A DNA FP: 3.4; LANA-H2A inh: -0.2; B2AR ag: -7

What do the screens show for `CCN(CC)Cc1c(C(=O)N/N=C/c2ccc(OCc3ccccc3C)cc2)nnn1-c1nonc1N`?
ALR H2O2 inh: -6; HNF4A DNA FP: 0.3; LANA-H2A inh: -3.3; FGF22 binding: inactive; B2AR ag: 3

Results for CCCSC1=NN2CCCC(=O)N=C2S1 ?
ALR H2O2 inh: -2; HNF4A DNA FP: 3.9; LANA-H2A inh: 1.0; E coli growth: 0.68; UCH37 DUB inh: 4.8; FGF22 binding: inactive; B2AR ag: -8

What do the screens show for `C/C(Cl)=C/Cn1c(N2CCCC2)nc2c1c(=O)[nH]c(=O)n2C`?
ALR H2O2 inh: 35; HNF4A DNA FP: -1.7; LANA-H2A inh: -2.4; E coli growth: 0.71; UCH37 DUB inh: -0.4; FGF22 binding: inactive; B2AR ag: 3

What do the screens show for `CC(C)Cn1c(CCCNC(=O)c2ccco2)nc2ccccc21`?
ALR H2O2 inh: -6; HNF4A DNA FP: 3.4; LANA-H2A inh: -1.2; E coli growth: 0.65; UCH37 DUB inh: 2.7; FGF22 binding: inactive; B2AR ag: -17

Results for Cc1nnc(NC(=O)CSc2nccn2-c2cccc(C)c2C)s1 ?
ALR H2O2 inh: 5; HNF4A DNA FP: 1.8; LANA-H2A inh: 1.2; E coli growth: 0.7; UCH37 DUB inh: 2.3; FGF22 binding: inactive; B2AR ag: -15

How did COc1ccc(OC)c(C2=NS(=O)(=O)N(C)C(C(=O)Nc3ccc(C(C)=O)cc3)=C2)c1 do in these assays?
ALR H2O2 inh: 2; HNF4A DNA FP: 2.8; LANA-H2A inh: 2.8; E coli growth: 0.68; UCH37 DUB inh: 5.1; FGF22 binding: inactive; B2AR ag: 5

What do the screens show for `CCC/C=C(\CCC)C(NC(=O)c1ccc(C(=O)OC)cc1)c1ccc(C(=O)OC)cc1` (centres undefined)?
ALR H2O2 inh: -11; LANA-H2A inh: 2.0; UCH37 DUB inh: -1.3; FGF22 binding: inactive

How did CC(=C/C(=O)O)/C=C/c1ccco1 do in these assays?
ALR H2O2 inh: 3; HNF4A DNA FP: -0.6; LANA-H2A inh: -4.3; E coli growth: 0.65; UCH37 DUB inh: 5.8; FGF22 binding: inactive; B2AR ag: 8

What do the screens show for `Cn1c(=O)c(C(=O)Nc2ccccn2)c(O)c2ccccc21`?
HNF4A DNA FP: -0.6; LANA-H2A inh: -1.9; E coli growth: 0.69; UCH37 DUB inh: 0.5; B2AR ag: -13

What do the screens show for `CC1=C(C#N)C(=O)NC(=O)/C1=C/c1ccc(-c2ccc(S(N)(=O)=O)cc2)o1`?
ALR H2O2 inh: -15; HNF4A DNA FP: 1.3; LANA-H2A inh: -1.9; E coli growth: 0.7; UCH37 DUB inh: -13; FGF22 binding: inactive; B2AR ag: -1

What do the screens show for `COc1cccc(C(C2=C(O)CC(C)(C)CC2=O)C2C(=O)CC(C)(C)CC2=O)c1` (centres undefined)?
ALR H2O2 inh: 98*; HNF4A DNA FP: -1.5; LANA-H2A inh: -3.5; E coli growth: 0.61; UCH37 DUB inh: 1.4; FGF22 binding: inactive; B2AR ag: 9

What do the screens show for `O=C(NC(=S)N1CCN(C2CCCCC2)CC1)c1ccccc1`?
ALR H2O2 inh: 43; HNF4A DNA FP: -2.7; LANA-H2A inh: -5.8; E coli growth: 0.72; UCH37 DUB inh: 3.8; FGF22 binding: inactive; B2AR ag: 1

Results for COc1ccc(S(=O)(=O)N2CCC(C(=O)NCCC(=O)Nc3nccs3)CC2)cc1 ?
ALR H2O2 inh: -9; HNF4A DNA FP: -1.5; LANA-H2A inh: 4.7; E coli growth: 0.69; UCH37 DUB inh: 4.0; FGF22 binding: inactive; B2AR ag: -10

Results for Clc1cccc(CON/C=N/c2ncnc3sccc23)c1 ?
ALR H2O2 inh: -8; HNF4A DNA FP: -3.4; LANA-H2A inh: -1.5; B2AR ag: 0

How did Cc1nnc(NC(=O)CSCc2ccccc2)s1 do in these assays?
HNF4A DNA FP: 4.1; LANA-H2A inh: 1.9; E coli growth: 0.7; UCH37 DUB inh: 1.1; FGF22 binding: inactive; B2AR ag: -17
